# Screening results: PubChem, several laboratories
# HNF4A DNA FP: change in binding of human HNF4 alpha to DNA. P41235. HNF4a-FITC DNA binding, fluorescence polarization, 1 h. activity change, % at 10 µM. hit rate 0.3% among 360,000; in the data active = activity change above about 30%, passing the limit was not always enough;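 note: controls were the assay level and a saturating level of protein; the project sought stronger binding though the title names inhibitors; some compounds called inactive have numbers as strong as hits; positive values seem to mean higher polarization but the record does not say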
# Target sequence (P41235 whole entry, looked up): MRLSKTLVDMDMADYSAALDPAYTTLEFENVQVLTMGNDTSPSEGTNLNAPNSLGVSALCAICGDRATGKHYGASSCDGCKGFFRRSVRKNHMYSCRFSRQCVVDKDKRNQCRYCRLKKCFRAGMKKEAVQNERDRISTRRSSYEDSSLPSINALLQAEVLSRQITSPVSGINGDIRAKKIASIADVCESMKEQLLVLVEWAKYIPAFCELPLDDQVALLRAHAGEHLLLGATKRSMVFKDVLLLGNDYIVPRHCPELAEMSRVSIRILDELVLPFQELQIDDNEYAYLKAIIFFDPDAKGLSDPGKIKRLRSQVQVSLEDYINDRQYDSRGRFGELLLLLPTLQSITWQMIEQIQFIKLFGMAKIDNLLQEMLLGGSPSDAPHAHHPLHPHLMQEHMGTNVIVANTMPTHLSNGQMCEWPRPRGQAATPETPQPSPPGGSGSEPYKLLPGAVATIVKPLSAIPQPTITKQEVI
# ALR inh: human ALR oxidase inhibition via reduced H2O2 | P55789 | purified ALR, DTT oxidation, H2O2 HRP-luminol luminescence | inhibition, % (test concentration not listed) | hit rate 3.8% among 290,000 | AID 485317;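 active = mean and each replicate at 75% or more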;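 note: stock transfer was 7.5 nL into about 7.5 µL; 0% = neutral wells and 100% = wells with inactivated enzyme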
# Target sequence (P55789 whole entry, looked up): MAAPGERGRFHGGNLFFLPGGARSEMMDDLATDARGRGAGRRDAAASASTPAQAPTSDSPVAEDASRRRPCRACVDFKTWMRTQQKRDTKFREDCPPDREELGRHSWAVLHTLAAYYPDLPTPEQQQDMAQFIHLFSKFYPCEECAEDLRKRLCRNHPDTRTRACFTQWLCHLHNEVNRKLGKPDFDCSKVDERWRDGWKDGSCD
# Numbers without * were called inactive. An excerpt, so the mix of outcomes need not match the whole.
SMILES,HNF4A DNA FP,ALR inh
COc1ccccc1C(=O)N/N=C(\C)c1ccc(NC(=O)C2CC2)cc1,-4.0,-2
N#Cc1ccc(Nc2nc(-c3ccc(O)cc3O)cs2)cc1C(F)(F)F,3.6,72
COc1cccc(/C=N/c2sc(Cc3ccccc3)c(C)c2C(N)=O)c1O,17,12
CCCCN1CC[C@H]2C=CC[C@@H](C(=O)Nc3ccc(OC)cc3)[C@H]2C1=O,0.0,-6
Cc1cc(C(=O)N/N=C/c2ccc[nH]2)no1,-0.4,0
CCN1C(=NCCc2ccc([N+](=O)[O-])cc2)N[C@@H](c2ccccc2)[C@H](C(=O)OC)[C@H]1C,0.1,3
COc1ccc(N2C(=O)/C(=C/c3cccnc3)NC2=S)cc1,0.5,16
CCN(Cc1ccccc1)c1ccc(/C=N/NC(=O)c2cccc(S(=O)(=O)N3CCOCC3)c2)cc1,9.4,0
C#Cc1ccc([C@H]2C=C(C(=O)NCc3ccccc3)O[C@@H](OCc3ccc(CO)cc3)C2)cc1,8.0,-2
C=CCNC(=O)c1c(Cl)nc(C)c([N+](=O)[O-])c1C,3.9,0
O=C(N/N=C/c1cccc([N+](=O)[O-])c1)C1CC1c1ccccc1 (stereo unspecified),-1.4,-1
Cc1ccc2c(c1)C(=O)N1[C@H]3c4ccccc4OC[C@@H]3[C@H](c3ccccc3)[C@]1(C)C(=O)N2,-0.2,4
FC(F)(F)c1n[nH]c(=S)n1/N=C/c1ccco1,-3.1,22
CC1=NN(c2ccc(Cl)cc2)C(=O)C1C(c1cccc(O)c1)c1c(C)[nH]n(-c2ccc(Cl)cc2)c1=O (stereo unspecified),-3.1,11
C#CCOCCOCCOCCNc1nc(N2CCN(C(=O)C([C@@H](C)O)n3cc([C@@H](N)CCCCN)nn3)CC2)nc(N2CCN(C(=O)[C@H](CCCCN)n3cc(CN)nn3)CC2)n1 (stereo partly specified),60*,0

# Reprinted at random: two entries already listed, in no set order.
SMILES,HNF4A DNA FP,ALR inh
C=CCNC(=O)c1c(Cl)nc(C)c([N+](=O)[O-])c1C,3.9,0
N#Cc1ccc(Nc2nc(-c3ccc(O)cc3O)cs2)cc1C(F)(F)F,3.6,72

# Additional compounds follow.
SMILES,HNF4A DNA FP,ALR inh
C/C(=N\NC(=O)c1cccc(S(=O)(=O)Nc2ccccc2Cl)c1)c1ccco1,-1.4,28
C#CCOCCOCCOCCNc1nc(N2CCN(C(=O)CCCCCCCCCCNC(=O)[C@H]([C@@H](C)CC)n3cc(CCCCCN)nn3)CC2)nc(N2CCN(C(=O)CCCCCCCCCCNC(=O)[C@@H]([C@H](C)O)n3cc(C)nn3)CC2)n1,15,-4
COc1ccc2c(c1)OC[C@H]1[C@H]2N2C(=O)c3cc(Br)ccc3NC(=O)[C@@]2(C)[C@H]1c1ccccc1,5.2,-4
O=C(COc1ccccc1[N+](=O)[O-])N/N=C/c1cccc(OC(=O)c2ccc3c(c2)OCO3)c1,9.1,-4
Cc1cccc(CS(=O)(=O)c2ncc(Cl)c(C(=O)Nc3nnc(C(C)C)s3)n2)c1,-2.7,11
CCn1cc(/C=N\NC(=O)c2ccccc2Cl)cn1,1.6,15
CC1=C[C@H](C)[C@H](c2c(F)cccc2Cl)CC1=O,-2.1,-3
O=C(N/N=C\c1c(O)ccc2ccccc12)c1ccc(S(=O)(=O)N2CCCCC2)cc1,71*,1
COc1ccc(/C(C)=N/OCC(=O)N=Nc2c(O)[nH]c3ccccc23)cc1,0.6,-6
CCN1C(=O)N[C@@H](c2ccccc2)[C@H](C(=O)OC)[C@H]1C,-1.2,-11
C/C(=N/NC(=O)c1ccc(Br)o1)c1ccncc1,3.0,-1
COC1=CC(=O)C(O)=C(CCCCCCC/C=C/CCCCCCCC2=C(O)C(=O)C=C(OC)C2=O)C1=O,-70,6
C#CCOCCOCCOCCNc1nc(N2CCN(C(=O)[C@H](CCCCN)n3cc([C@@H](N)C(C)CC)nn3)CC2)nc(N2CCN(C(=O)[C@H](Cc3ccc(O)cc3)n3cc([C@@H](N)C(C)CC)nn3)CC2)n1 (stereo partly specified),16,-57
COc1ccc2c(c1)[C@H]1[C@H](CO2)[C@H](c2ccccc2)[C@]2(C)C(=O)N(Cc3ccc(C)cc3)CC(=O)N12,0.7,7
C#CCOCCOCCOCCNc1nc(N2CCN(C(=O)C([C@@H](C)O)n3cc([C@@H](N)CCCCN)nn3)CC2)nc(N2CCN(C(=O)[C@H](CCCN=C(N)N)n3cc(C(N)[C@@H](C)CC)nn3)CC2)n1 (stereo partly specified),61*,4

# Ordered by length of the SMILES (rising): some entries from above
SMILES,HNF4A DNA FP,ALR inh
CCn1cc(/C=N\NC(=O)c2ccccc2Cl)cn1,1.6,15
CC1=C[C@H](C)[C@H](c2c(F)cccc2Cl)CC1=O,-2.1,-3
COc1ccc(/C(C)=N/OCC(=O)N=Nc2c(O)[nH]c3ccccc23)cc1,0.6,-6
C/C(=N\NC(=O)c1cccc(S(=O)(=O)Nc2ccccc2Cl)c1)c1ccco1,-1.4,28
O=C(COc1ccccc1[N+](=O)[O-])N/N=C/c1cccc(OC(=O)c2ccc3c(c2)OCO3)c1,9.1,-4
COC1=CC(=O)C(O)=C(CCCCCCC/C=C/CCCCCCCC2=C(O)C(=O)C=C(OC)C2=O)C1=O,-70,6

# More structures.
SMILES,HNF4A DNA FP,ALR inh
CCC(CC)C1=NN2C(=N)/C(=C\c3cc(C)n(-c4cccc(C)c4)c3C)C(=O)N=C2S1,5.4,3
COc1ccc(/C=C/C(=O)Nc2cc(S(=O)(=O)N3CCCCC3)ccc2N2CCCCC2)cc1OC,-2.2,-18
Cc1cc2ncn(/N=C/c3ccc([N+](=O)[O-])s3)c2cc1C,5.6,-28
O=C(N/N=C/c1cccc(F)c1)NC1CCCCC1,-2.9,-7
C#Cc1ccc([C@@H]2C=C(C(=O)N3CCOCC3)O[C@H](OCc3ccc(CO)cc3)C2)cc1,1.5,-13
CCO[C@@H]1OC(C(=O)NC2CC2)=C[C@H](C2CCCCC2)[C@H]1CCCO,-1.9,-3
COc1cc(/C=N/NC(=O)CCc2n[nH]c(=O)[nH]c2=O)cc(OC)c1OC,-1.1,-6
COC(=O)N/N=C/c1cc(Cl)cc(Cl)c1OCc1ccc(F)cc1,0.3,0
COc1cccc(/C=C/C(=O)OCC(=O)Nc2ccc(Cl)cn2)c1,-4.6,-2
Cc1ccc2c(c1)[C@H]1[C@H](CO2)[C@H](c2ccccc2)[C@]2(C)C(=O)Nc3cc(Cl)ccc3C(=O)N12,0.1,-2
O=[N+]([O-])c1cc2c(cc1/C=N/n1c(-c3ccccn3)n[nH]c1=S)OCO2,1.6,21
COc1cc(CNc2ccc(CNc3ncn[nH]3)cc2)ccc1OCC(=O)NC(C)(C)C,-3.8,-3
COc1cc(/C=N\NC(=O)CNC(=O)C2COc3ccccc3O2)ccc1O (stereo unspecified),-2.9,98*
CCOC(=O)C1=C(C)N=c2s/c(=C/c3ccc(OCC(=O)O)cc3)c(=O)n2C1c1ccc(SC)cc1 (stereo unspecified),-2.7,-7
Cc1cc(/C=N/n2cnnc2)c(C)n1-c1ccc(Cl)cc1,2.2,5
COc1cc(/C=N/NC(=S)NCc2ccco2)cc(OC)c1OC,3.2,11
CC(=O)c1cccc(NC(=O)c2ccc(-c3ccccc3[N+](=O)[O-])o2)c1,2.1,-17
Cc1ccc(OCC(=O)N/N=C\c2ccc(-c3cccc(C(=O)O)c3)o2)c(C)c1,-8.5,9
O=C(NCC1CCCO1)c1cccc2c1C(=O)c1ccc(N3CCC(Cc4ccccc4)CC3)cc1S2(=O)=O (stereo unspecified),62,30
Cc1cc(-c2n[nH]c(=S)n2/N=C/c2ccc(Cl)c([N+](=O)[O-])c2)n[nH]1,-1.4,97*
O=c1oc2ccccc2c(O)c1/C=N/c1ncccn1,1.2,33
Cc1ccc(C(=O)Nc2ccc(C(=O)N/N=C/c3c[nH]c4ccccc34)cc2)cc1,-5.8,-3
C/C(=N/OCO/N=C(\C)c1ccc(F)cc1F)c1ccc(F)cc1F,-2.7,3
COc1cc(/C=N/NC(=O)C(=O)NCc2ccco2)ccc1O,3.8,70
CC(=O)Nc1sc(N/N=C\c2cccc(Cl)c2)nc1-c1cccs1,3.9,-3
COC(=O)C1=C(C)N(Cc2ccccc2)C(=NCc2ccccc2)N[C@H]1c1cccc(C(F)(F)F)c1,8.9,-12
C#CCOCCOCCOCCNc1nc(N2CCN(C(=O)CCCCCCCCCCNC(=O)[C@@H](CCC(=O)O)n3cc(CCCCCN)nn3)CC2)nc(N2CCN(C(=O)CCCCCCCCCCNC(=O)[C@H](CO)n3cc(CCCSC)nn3)CC2)n1,3.7,-3
CC(C)CCn1c(=O)c(C(=O)N/N=C/c2cccc(F)c2)c(O)c2ccccc21,0.3,15
O=C(/C=C/c1cccs1)N1CCC2(CC1)Oc1ccc(Cl)cc1C(=O)C21CC(c2ccc(Cl)cc2)=NO1 (stereo unspecified),2.9,-2
CCc1c(C#N)c(SCc2c(C)noc2C)nc2c1C(=O)CC(C)(C)C2,-3.0,-9
COc1cccc(/C=N/NC(=O)C(=O)Nc2ccccc2OC(F)(F)C(F)F)c1,2.4,2
COc1ccc([N+](=O)[O-])cc1/C=N/NC(=O)CNC(=O)C(c1ccccc1)c1ccccc1,1.4,-14
Cc1cccc(/C=N/NC(=O)Cn2nccc2C)n1,-1.6,-5
O=C(CCCc1nc2ccccc2s1)NCc1ccc(F)cc1,0.2,-2
O=C(COc1ccc(/C=N/NC(=O)c2ccc(O)cc2)cc1)Nc1ccc([N+](=O)[O-])cc1,-45,3
COc1ccc(-c2cc(-c3n[nH]c(=S)n3-c3ccccc3OC)[nH]n2)cc1,-0.7,88*
O=C(N/N=C/c1cccn1-c1cccc(C(=O)O)c1)Nc1ccccc1,-8.8,97*
O=C(COC(=O)c1ccccc1Nc1ccccc1)NCc1ccccc1Cl,1.3,6
CCCNC(=O)C1(CC2CC(c3ccccc3)=NO2)CCN(C(=O)CCCCCBr)CC1 (stereo unspecified),-0.5,-10
COc1ccc(Nc2cc(C(=O)NCc3ccco3)c3ccccc3n2)c(OC)c1,2.1,-37
C=C1/C=C(\C)C(C)(O)CC(O)CC(=O)C(O)C(O)C(C)CC(C)OC(=O)/C(C)=C/CC/C=C/C(OC)C(O)CC(C)C1 (stereo unspecified),-2.2,-1
COc1ccc(/C=C/C(=O)NC(=S)NNC(=O)c2c(-c3ccccc3)noc2C)cc1,-3.6,-2
C[C@@H](CN1CCC[C@H]1CN1C(N)=NC[C@@H]1Cc1ccccc1)N1C[C@@H](Cc2ccccc2)N(CCCC2CCCC2)C1=N,3.9,-8
C/C(=N/NC(=O)c1ccc(Br)o1)c1cccc(NC(=O)c2ccc(C)o2)c1,-0.3,-4
C/C(=N/OCC(=O)NCCCCCCNC(=O)CO/N=C(/C)c1cccs1)c1cccs1,0.3,0
O=[N+]([O-])c1cccc(/C=N/n2cnnc2)c1O,-4.2,-40
CCOC(=O)[C@@H]1[C@H]2COc3ccccc3[C@@H]2N2C(=O)N(c3ccccc3)C(=O)[C@@]12C,1.0,2
C#CCOCCOCCOCCNc1nc(N2CCN(C(=O)[C@H](CCCCN)n3cc([C@@H](N)C(C)CC)nn3)CC2)nc(N2CCN(C(=O)[C@H](Cc3cc4ccccc4[nH]3)n3cc([C@@H](N)C(C)CC)nn3)CC2)n1 (stereo partly specified),49*,-14
CCCCCCCCCCC[N+](C)(C)CC/C=C1/c2ccccc2Sc2ccc(Cl)cc21,8.5,1
C#CCOCCOCCOCCNc1nc(N2CCN(C(=O)[C@H](CCC(=O)O)n3cc(C(N)CO)nn3)CC2)nc(N2CCN(C(=O)[C@H](CCC(=O)O)n3cc(C(N)[C@H](C)CC)nn3)CC2)n1 (stereo partly specified),3.0,-3
C/C(=N\Nc1ccc(C(F)(F)F)cn1)c1ccc(S(=O)(=O)NCc2ccco2)cc1,-2.6,-6
CN(C)c1nc(N/N=C\c2ccc(Cl)c([N+](=O)[O-])c2)nc(Nc2ccc(F)cc2)n1,0.1,1
C(=N\N1CCN(Cc2ccccc2)CC1)/c1cccnc1,1.2,-12
O/N=C/c1ccc(OCc2ccccc2)c(Br)c1,-1.1,35
O=C(CN1CCN(S(=O)(=O)c2ccc(Br)cc2)CC1)N/N=C/c1cccnc1,-2.7,-3
O=C(CNC(=O)c1ccc(S(=O)(=O)N2CCCC2)cc1)N/N=C/c1ccccc1Cl,3.8,0
CCN(CC)c1ccc(/C=C2\NC(=O)NC2=O)cc1,5.8,99*
Cc1ccc(-n2nc3c(N4CCC(C(=O)NCCc5ccccc5C)CC4)nnc(C)c3c2C)cc1,11,1
Cn1c2ccccc2c2cc(/C=N/NC(=O)c3ccc(O)cc3O)ccc21,3.8,-2
O=C(CC(=O)Nc1ccc(Cl)c(Cl)c1)N/N=C/c1ccc(O)cc1,-0.8,98*
